# RanGTP-Imp inh = disruptors of Ran-importin-beta complex formation – biochemical, FRET, CFP-Ran, YFP-importin-beta, homogeneous, primary screen. cell-free CFP-Ran/YFP-importin-beta FRET ratio. inhibition, % (no concentration beside the values). actives 1.1% (n = 300,000). AID 2216;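 active means most replicates above 15%; inconclusive means exactly half above 15%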;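 further: 0% = DMSO wells and 100% = Ran loaded with GDP instead of GTP; wells of about 40 µL received 100 nL stock; the first replicate is given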
# LANA-H2A inh = blocks KSHV LANA binding to histone H2A/H2B. Q9QR71. inhibition, % (test concentration not listed). cell-free LANA-H2A/H2B peptide, fluorescence polarization. AID 2629. actives 0.6% (n = 320,000); in the data active means inhibition mostly above about 10%, no sharp cut-off; inactive means mostly below about 6.7%;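 further: stock transfer was 7.5 nL into about 10 µL; 0% = median of vehicle wells and 100% = median of positive control wells; one replicate is shown; the record names a cut of 25% in any replicate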
# Bfl-1 A1 inh = inhibitors of the anti-apoptotic protein A1, read as caspase activation | caspase activation, % (concentration not given with the values) | AID 2462 | MEF A1-2A-BIM cells, Caspase-Glo 3/7 luminescence, 3 h; percent of clofoctol response, vehicle zero | actives 0.066% (n = 330,000);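 active means over half of replicate activation scores above 10%, or exactly half above 10 with the replicate mean above 10; inconclusive means replicate mean below 10 yet half the replicates above 10; inactive means over half of replicates below 10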;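 further: wells of about 30 µL received 50 nL stock; many hits fall short of the cut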
# T cruzi inh = blocks replication of Trypanosoma cruzi. T. cruzi beta-gal in NIH3T3, luminescence, 90 h. inhibition, % (test concentration not listed). actives 1.4% (n = 300,000). AID 1885;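 active means mean inhibition across valid replicates above about 55%, limit read from the data; inconclusive means mean below that limit but half or more replicates reach it; inactive means mean below it, under half of replicates reach it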;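 further: signal also drops with host cell toxicity which is not excluded here; 0% = plate median of DMSO wells and 100% = zero luminescence signal; higher percent means less beta-gal luminescence so fewer parasites; stock transfer was 50 nL into about 50 µL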
# B2AR ag = activates human beta-2 adrenergic receptor causing internalization; AID 504454; P07550; actives 0.43% (n = 340,000); Am2.2-beta2AR cells, FAP receptor internalization, flow cytometry; reference of the scale not given here; response, % (concentration not given with the values);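 active means response above a set limit, near 3 SD of response in nonfluorescent compounds, cut at about 42% in these data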;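 further: stock transfer was 100 nL into about 11 µL; a reference agonist was the positive control; negative values mostly stem from fluorescent compounds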
# Target sequence (P07550 whole entry, looked up): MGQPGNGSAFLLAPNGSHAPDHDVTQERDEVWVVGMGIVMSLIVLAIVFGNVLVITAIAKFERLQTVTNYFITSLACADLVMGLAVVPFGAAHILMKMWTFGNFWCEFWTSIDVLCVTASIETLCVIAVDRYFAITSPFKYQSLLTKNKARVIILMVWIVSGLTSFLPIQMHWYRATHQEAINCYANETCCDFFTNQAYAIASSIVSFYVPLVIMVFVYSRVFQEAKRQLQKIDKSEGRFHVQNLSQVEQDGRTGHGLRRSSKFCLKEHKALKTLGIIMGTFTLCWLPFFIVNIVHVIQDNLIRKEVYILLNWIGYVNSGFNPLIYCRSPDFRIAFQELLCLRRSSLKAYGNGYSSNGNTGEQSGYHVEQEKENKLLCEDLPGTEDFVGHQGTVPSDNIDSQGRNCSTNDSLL
# Beta apoptosis = beta cell apoptosis inhibition; actives 0.8% (n = 300,000); INS-1E cytokine-induced death, ATP luminescence, 48 h; percent of positive-control rescue, neutral wells zero; AID 435005; protection from apoptosis, % (test concentration not listed);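 active means all replicates at 75% or more, or half of them and the mean; inconclusive means half reach 75% but not the mean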;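 further: 0% = cytokine-treated negative control wells and 100% = positive control rescue; higher means more ATP so stronger rescue from cytokine killing; wells of about 40 µL received 100 nL stock; the first replicate is given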
# Calb FLC = affects C. albicans growth with fluconazole | actives 0.57% (n = 300,000) | C. albicans CaCi-2 (fluconazole-resistant clinical isolate) + fluconazole, Alamar Blue growth, 48 h | AID 1979 | growth inhibition, % (test concentration not listed);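 active means most replicates above 75%; inconclusive means exactly half above 75%; inactive means most below 75%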;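 further: all wells also contain fluconazole at 8 µg/ml as a sub-toxic cotreatment; 0% = median of DMSO wells and 100% = median of geldanamycin control wells; wells of about 8 µL received 7.5 nL stock; the first replicate is given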
# UCH37 inh = blocks the human deubiquitinase UCH37 | actives 0.33% (n = 330,000) | purified proteasome/UCH37, Ub-AMC cleavage fluorescence | AID 588478 | Q9Y5K5 | inhibition, % (concentration not given with the values);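 active means mean of two replicates above 20%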;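 further: 0% = compound-free wells with enzyme and 100% = wells lacking proteasome; stock transfer was 100 nL into about 20 µL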
# Target sequence (Q9Y5K5 whole entry, looked up): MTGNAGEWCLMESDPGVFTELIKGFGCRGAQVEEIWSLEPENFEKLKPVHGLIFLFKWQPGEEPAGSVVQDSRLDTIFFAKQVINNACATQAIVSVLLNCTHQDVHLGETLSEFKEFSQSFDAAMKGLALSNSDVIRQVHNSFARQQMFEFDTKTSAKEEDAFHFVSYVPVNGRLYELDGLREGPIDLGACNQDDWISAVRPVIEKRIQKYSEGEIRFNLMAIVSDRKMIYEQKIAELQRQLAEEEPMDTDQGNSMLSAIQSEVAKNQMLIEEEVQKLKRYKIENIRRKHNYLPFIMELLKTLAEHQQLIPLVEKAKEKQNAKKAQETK
#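 Signal – fluorescence, ex 355 nm, em 460 nm · System – Proteasome-bound UCH37 · Input – 0.15 nM proteasome as dispensed · Timing – 30 min preincubation with enzyme, 25 min cleavage at room temperature · Read-out basis – percent inhibition of cleavage signal versus uninhibited and no-proteasome wells · Medium – Tris-HCl pH 7.4 with ATP-MgCl2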
# Starred values were filed as active, the others as inactive; ? = inconclusive; . = no result given.
SMILES,RanGTP-Imp inh,LANA-H2A inh,Bfl-1 A1 inh,T cruzi inh,B2AR ag,Beta apoptosis,Calb FLC,UCH37 inh
CCc1cc(=O)oc2c(C)c(OCC(=O)NCCCN3CCOCC3)ccc12,1.6,-5.6,-0.7,4,4,.,-4,-26
Cc1ccnc(NC(=O)C2CCN(S(=O)(=O)c3ccc4ccccc4c3)CC2)c1,.,0.8,0.3,-3,-5,-17,-2,3.5
O=S(=O)(Nc1nc2ccccc2nc1N1CCN(c2ccccc2F)CC1)c1ccc(Cl)cc1,5.1,-2.7,1.0,-1,11,4,45,2.2
O=C(NN1C(=O)C2CCCCC2C1=O)c1ccco1 (stereo not given),-4.0,-3.1,-0.4,-17,-3,-3,-7,-1.4
O=C(OCc1cc2ccccc2[nH]c1=O)c1cccs1,-0.2,3.4,-0.1,-27,-10,-1,-8,-2.3
Cc1nc2ccc(S(=O)(=O)NCC(=O)NC(C)c3ccccc3)cc2s1 (stereo not given),-2.8,1.5,-0.1,-11,-4,-2,1,5.3
CC(=O)c1cccc(NC(=O)N2CCCC2C(=O)Nc2cccc(C)c2)c1 (stereo not given),4.0,-0.6,0.3,2,3,0,1,3.4
COc1ccc(NC(=O)c2nc(SC)ncc2Cl)cc1,4.2,-1.5,-0.5,-2,-14,4,8,1.5
O=C(O)c1ccc(NS(=O)(=O)c2cccc(C(=O)Nc3ccc(Br)cc3)c2)cc1,-7.0,-1.7,-0.4,-2,-4,-5,-5,3.2
Cc1ccc(CSCc2nc3ccccc3[nH]2)cc1,-3.1,.,.,5,-17,.,-11,-0.5
Cc1noc(C)c1C(=O)N1CCCc2ccccc21,5.6,2.7,1.5,-5,-2,-16,-5,0.4
CN(C)C(CNC(=O)/C=C/c1cccc(Cl)c1)c1ccccc1 (stereo not given),0.5,-1.5,-0.3,10,3,-3,-25,4.4
Cc1ccsc1C(=O)N1CCC(N2CCC(C(=O)NCC3CCCO3)CC2)CC1 (stereo not given),-5.4,-5.9,0.5,0,-2,-3,0,-0.3
COc1ccc(-c2nc(C#N)c(NCc3cccnc3)o2)cc1OC,-1.2,-1.9,-0.8,64*,-5,5,-7,-46
C=CCn1c(SCC(C)=O)nc2scc(-c3ccco3)c2c1=O,?,-0.9,0.1,0,7,0,6,2.5
COc1ccc(C2CC(c3cccs3)=NN2C(=O)CSc2nnc(N)s2)cc1OC (stereo not given),.,-0.8,-1.2,.,-2,-6,-2,1.6
CCOc1cccc(-c2nc3cc(C)ccc3o2)c1,-1.8,-0.1,0.3,-5,8,0,-2,-1.1
COc1ccc(NC(=O)CSc2nc(C)cc(C(F)(F)F)n2)cc1,-4.0,-4.1,-0.6,2,0,1,-6,1.1
O=C(O)COc1ccc(NC(=O)C(c2ccccc2)c2ccccc2)cc1,-5.0,13,1.3,-8,1,1,-8,-0.1
Cc1ccc2c(c1)c1c3n2CCCN(Cc2ccccc2)C3CCC1 (stereo not given),6.2,2.1,0.1,19,16,-10,-5,1.9
Cc1cc(SCC(=O)OCC(=O)N2CCN(C(=O)c3ccco3)CC2)c(C)cc1Br,1.6,-6.4,-0.3,-4,-5,-4,13,1.2
Cc1c(NC(=O)C(C)Sc2nnc(-c3ccccc3)o2)c(=O)n(-c2ccccc2)n1C (stereo not given),5.8,4.3,-1.0,2,-1,-2,19,1.0
C#CCOCCOCCOCCNc1nc(N2CCN(C(=O)[C@H](CCC(=O)O)n3cc(C(N)CC(C)C)nn3)CC2)nc(N2CCN(C(=O)[C@H](Cc3ccc(O)cc3)n3cc(C(N)CC(C)C)nn3)CC2)n1 (stereo not given in full),1.0,-4.3,1.0,-3,-3,-6,-2,0.6
CCOC(=O)C1=C(c2ccccc2)NC(=O)NC1c1ccsc1 (stereo not given),2.0,1.1,-0.6,-21,2,-1,21,1.2
CN(C)c1ccc(/C=C/C(=O)c2c(O)c3ccccc3oc2=O)cc1,2.7,-5.3,0.5,-13,3,4,-6,5.3
CC1(C(=O)NC2CCCCCCC2)CCC(=O)N1Cc1cccs1 (stereo not given),0.0,2.0,0.0,0,1,1,-14,2.1
Cc1ccc(S(=O)(=O)Nc2cccc(C(=O)NCc3ccc(S(N)(=O)=O)cc3)c2)cc1,-0.7,-6.9,0.3,-9,3,0,3,4.0
Cc1ccc(OCC(=O)Nc2ccc3c(c2)nc(CCN2CCC(C)CC2)n3C)cc1,-2.1,4.5,-0.2,7,4,-4,43,2.5
O=C(O)c1cccnc1SC1CC(=O)N(c2ccc(OC(F)F)cc2)C1=O (stereo not given),0.0,5.9,0.3,9,-2,-8,0,2.6
CC(C)c1nnc(NC(=O)CN(C)S(=O)(=O)c2ccc3c(c2)OCCO3)s1,1.2,-3.5,-0.6,-27,4,-1,-1,-1.4
CCCCc1c(O)nc(SCC(=O)NC(C)(C)C)n(-c2ccccc2C)c1=O,-1.5,1.0,0.7,-19,-3,-3,0,2.5
COc1cccc(C(=O)Nc2ccccc2OC(F)(F)F)c1,1.8,-2.5,2.6,-8,0,0,2,1.9
C=CC(=O)OCCOCCOCCOCCOC(=O)C=C,.,-48,-0.8,.,2,-16,.,.
CC(=O)c1ccc(NC(=O)NCc2ccc(F)cc2)cc1,2.9,8.1,-0.6,-11,-1,-2,-24,-1.9
O=C(CN1CCCCC1)Nc1cccc(Cl)c1,1.6,0.2,0.2,0,10,-2,6,3.7
Cc1nn(CC(O)COc2ccc3c(c2)CCC3)c(C)c1C (stereo not given),1.6,0.7,1.7,-17,4,-1,7,2.6
CCn1cc(C(=O)Nc2ccc(OC)c(OC)c2)c2cc(OC)c(OC)cc2c1=O,-0.2,-1.0,0.0,-1,2,6,1,1.6
CC(=O)c1cccc(NC(=O)N2CCCC2C(=O)NCc2ccccc2)c1 (stereo not given),1.6,2.7,-2.1,2,6,-3,3,2.2
CCN(c1ccc(NC(=O)COC(=O)c2ccc(C)c(S(=O)(=O)N3CCOCC3)c2)cc1)C(C)C,-0.5,7.9,0.3,-5,3,-1,-4,1.7
COC(=O)c1cn(CCC#N)nc1-c1ccc2ccccc2c1,-0.8,4.1,0.1,-7,-2,-1,-2,2.7
O=c1[nH]c(=O)n(-c2ccc(F)cc2)c2c1C(C(F)(F)F)(C(F)(F)F)N=C(c1ccc(F)cc1)N2,2.5,-4.1,-0.3,-13,10,76*,-14,5.3
COc1cc(/C=N/NC(=O)c2nnn(-c3nonc3N)c2C(C)C)ccc1OCc1ccccc1,2.2,-1.1,-0.9,22,14,8,14,.
CC(=O)c1c(C)[nH]c(C(=O)OCC(=O)N2CCN(S(=O)(=O)c3ccc(C)cc3)CC2)c1C,.,5.0,1.3,.,6,-13,.,-0.6
O=C(O)c1cccc2c1C(=O)N(Cc1ccccc1)C2,?,4.7,-0.1,0,0,.,-1,-0.7
CCCCN(C)C(=O)c1nc2ccccn2c1CNCCCn1ncc2ccccc21,-1.7,3.7,-0.9,-7,-8,-2,-4,0.1
CCCc1nnc(NC(=O)C23CC4CC(CC(C4)C2)C3)s1,3.4,-2.2,0.7,-2,-1,3,0,1.9
O=C(CN1CCN(c2ccccc2F)CC1)c1ccc(O)cc1O,-1.9,-0.9,-0.7,-20,8,-4,5,4.4
CCn1cc(CN2CCC(n3nccc3NC(=O)c3ccccc3C)CC2)c(C)n1,5.2,-0.1,-0.1,49,0,-5,-6,0.9
Cc1onc(-c2c(Cl)cccc2Cl)c1C(O)c1ccc(F)cc1 (stereo not given),1.3,-9.0,-0.1,1,3,-5,3,2.3
CCCC(=O)Nc1c(O)c2ccccc2[nH]c1=O,-3.9,15,1.1,-13,2,-5,0,1.1
COC(=O)C1=C(N)Oc2cc(C)n(Cc3cccnc3)c(=O)c2C1c1ccc(OC)c(OC)c1OC (stereo not given),-0.5,7.1,-0.3,6,-3,4,-13,-1.6
COCC(C)n1c(SCc2ccc(OC)c(F)c2)nc2ccccc2c1=O (stereo not given),-4.7,.,.,59*,4,.,36,-3.1
O=C(COC(=O)c1ccc[nH]c1=O)NCCc1ccc(Cl)cc1Cl,4.3,1.1,-0.9,1,4,0,-4,-0.7
COc1ccc(NC(=O)C(=O)NCCN2CCN(C(=O)c3ccc(C)cc3)CC2)cc1,-1.5,0.0,-0.6,5,-10,-5,4,-1.2
O=C(O)CC(NS(=O)(=O)c1c(F)cc(F)cc1Br)c1ccccc1Cl (stereo not given),-1.6,2.7,0.2,-9,-3,-5,3,4.3
CC(=O)NC(=S)NNC(=O)c1ccc(Br)cc1,2.3,-86,-0.4,-31,8,9,-7,.
CC(=O)Nc1ccc(NC(=O)c2ccccc2N(C)S(=O)(=O)c2ccccc2)cc1,1.0,-0.3,0.4,-2,-8,-9,-1,1.5
CCOC(=O)Cn1c(=O)c2c(nc3n2CCCN3CCc2ccccc2)n(C)c1=O,-0.8,1.2,0.1,27,-5,-3,4,1.9
OCCC1CN(Cc2ccc(-n3cccn3)cc2)CCN1Cc1ccccc1 (stereo not given),-0.6,-0.2,-0.3,28,-11,-10,21,5.6
CN(C)c1ccc(C(=O)Nc2ccc(O)c3c(=O)cc(-c4ccccc4Cl)oc23)cc1,-0.3,-1.1,-0.3,8,2,3,-3,0.0

# (list continues)
SMILES,RanGTP-Imp inh,LANA-H2A inh,Bfl-1 A1 inh,T cruzi inh,B2AR ag,Beta apoptosis,Calb FLC,UCH37 inh
Cc1ccc(S(=O)(=O)NC(=O)c2ccc(F)cc2)c(C)c1,-1.8,0.8,-0.3,-4,6,-3,2,-1.3
CCOC(=O)C/C(C)=N\Nc1nc(-c2ccccc2)cs1,1.0,-8.5,0.3,11,-1,-10,-7,.
Cc1cccc(Nc2c3c(nc4ccccc24)CCC3)c1,-3.4,-0.4,-0.2,32,-6,34,?,-20
CCC(C)(C)n1nnnc1C(c1cc2cc(OC)c(OC)cc2[nH]c1=O)N1CCc2ccccc21 (stereo not given),-3.8,0.7,0.4,24,3,-2,1,9.4
CCCCNC(=O)CCNS(=O)(=O)c1ccc(C)cc1,1.0,3.0,0.1,-12,-1,-1,11,0.7
O=C1c2ccccc2C(O)(Cc2ccccc2)N1CCCN1CCOCC1 (stereo not given),2.6,2.0,0.6,-1,1,1,3,1.4
S=C(Nc1ccccc1)Nc1ccc(Br)cn1,6.5,-5.6,0.3,-10,-9,1,-12,1.2
CCN(Cc1ccccc1)S(=O)(=O)c1cc(C(=O)NC2CCCCCC2)ccc1OC,0.2,1.5,-0.3,-5,0,31,27,-0.6
NC(=O)C1CCCN(S(=O)(=O)c2ccccc2)C1 (stereo not given),2.6,4.3,2.0,-4,3,-2,0,4.7
COc1ccc(NC(=O)c2ccco2)cc1NC(=O)c1ccc(Br)o1,3.1,-3.8,0.7,-3,-2,7,28,-4.1
CCc1c(C)[nH]n(-c2nc(-c3ccccc3)cs2)c1=O,5.7,2.6,0.9,-5,2,.,34,2.0
